Screens (PubChem)
VDR inhibitor: Inhibitors of the vitamin D receptor (VDR): qHTS. Vitamin D3 receptor (Homo sapiens), P11473. VDR-SRC2-3 peptide fluorescence polarization, 2 h. Potency, µM, for inactives: max response, negative = inhibition, usual class: inhibitors. hit rate 0.93% among 400,000. AID 504847, 2011; active = well fitted inhibition curve with a large enough effect; inconclusive = small, poorly fitted or top-dose-only effect, or another doubt; inactive = no such curve, though single readings can be large or run the other way; note: series mostly up to about 120 µM
Target sequence (P11473 whole entry, looked up): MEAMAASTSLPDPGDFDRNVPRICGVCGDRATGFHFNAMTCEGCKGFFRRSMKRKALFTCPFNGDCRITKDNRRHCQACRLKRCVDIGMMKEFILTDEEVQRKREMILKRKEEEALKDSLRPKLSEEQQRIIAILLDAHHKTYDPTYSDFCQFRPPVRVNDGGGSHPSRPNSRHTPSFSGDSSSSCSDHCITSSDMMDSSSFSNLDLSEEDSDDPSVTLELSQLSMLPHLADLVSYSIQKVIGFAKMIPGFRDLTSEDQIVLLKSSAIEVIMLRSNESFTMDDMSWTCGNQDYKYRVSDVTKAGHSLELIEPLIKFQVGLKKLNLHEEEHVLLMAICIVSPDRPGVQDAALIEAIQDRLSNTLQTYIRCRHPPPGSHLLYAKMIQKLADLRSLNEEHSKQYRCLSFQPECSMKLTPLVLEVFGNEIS
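Fluorescence polarization assay measuring small-molecule disruption of VDR binding to the coregulator peptide SRC2-3. Compounds were pin-transferred (23 nl) into the reagent mix and incubated 2 h at room temperature before reading.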
The depositor's hits bear a star; ? = inconclusive; & = joins results of further samples. % is set by controls: 0 for no effect and ±100 for the full control effect; potency is the fitted concentration of half-maximal effect. An excerpt. The share of hits here may be higher or lower than overall.

VDR inhibitor | SMILES
-2% | Cc1ccc(N2CC(C(=O)Nc3c4c(nn3C(C)(C)C)CS(=O)(=O)C4)CC2=O)cc1C (centres undefined)
-4% | CC(=O)N1c2ccc(S(=O)(=O)NCC3CCC(C(=O)NCc4ccc(C)o4)CC3)cc2CC1C (centres undefined)
0% | CCOc1cc(-c2c(C)c(C)nc(N)c2C#N)ccc1O
-5% | CCn1cc(C(=O)NC(C)CCc2ccccc2)c(=O)c2cc(S(=O)(=O)N(C)C)ccc21 (centres undefined)
4% | Cc1c(CCC(=O)O)c(=O)oc2c(C)c(OCc3cc4c(cc3Cl)OCO4)ccc12
3% | CCCC(C(=O)NC1CCCC1)N(Cc1ccccc1Cl)C(=O)c1snc(C(N)=O)c1N (centres undefined)
5% | NC(=O)c1ccc(NC(=O)COC(=O)c2n[nH]c3ccccc23)cc1
21% | Cc1ccc(C)c(OCCC(=O)Nc2cc(S(=O)(=O)N3CCCCC3)ccc2C)c1
11% | COc1cc(-c2nnc3n2CCCCC3)cc(OC)c1OC
4% | O=C(c1ccc(F)cc1F)N(Cc1ccccn1)Cc1ccco1
0% | CN(C)c1ncnc2ccc(-c3cccc(C#N)c3)cc12
-1% | O=C(Nc1ccccc1C(=O)NCCCN1CCOCC1)c1ccc(F)cc1F
21% | O=C1SC(c2ccccc2)=N/C1=C/c1ccco1
10µM* | Cc1cc(C)c2c(=O)n(CC(=O)NC3CCCC3)sc2n1
-1% | Cc1ccccc1S(=O)(=O)Cc1ccc(C(=O)N(C)C2CCCCC2)o1
-10% | CC#CCCCC(=O)Nc1cc(OC)nc(OC)n1
-23% | CCOC(=O)c1[nH]c2c(c1Cc1ccccc1OC)C(=O)CC(c1ccccc1)C2 (centres undefined)
-15% | O=C(COc1cccc2c1CCNC2=O)Nc1cccc(C(F)(F)F)c1
-7% | Cc1c(C(=O)N2CCN(S(=O)(=O)c3ccc(F)cc3)CC2)oc2ccccc12
-8% | O=C(Nc1cccc(F)c1)c1ccc(S(=O)(=O)N2CCCC2)cc1

(next part)
VDR inhibitor | SMILES
-2% | COC(=O)c1c[nH]c(=S)n1Cc1ccccc1
-17% | CN=C1S/C(=C\c2ccc(OCC(=O)OC)c(OC)c2)C(=O)N1C
-13% | Cn1c(-c2cccc(Br)c2)cnc1NCc1cccnc1
-10% | O=C(NNS(=O)(=O)c1ccccc1)c1cccs1
-6% | COc1cc(/C=N/NC(=S)Nc2cccnc2)cc(OC)c1O
-20% | CC(CN1CCCCC1)NC(=O)c1cccs1 (centres undefined)
9% | CCS(=O)(=O)N1CCC2(CC1)OCCN2S(=O)(=O)c1ccc(C)cc1
-7% | Cc1ccc(S(=O)(=O)NC(C)(C)CSc2nnc(N)s2)cc1
2% | COc1cccc(OC)c1C(=O)NC1C(=O)N2C1SC(C)(C)C2C(=O)O (centres undefined)
-13% | CSc1nc2sc3c(c2c(=O)n1-c1ccc(C)c(Cl)c1)CCN(C(C)=O)C3
? | Nc1nc(-c2ccccc2)c(-c2ccccc2)s1
-2% | CC(=O)c1ccc(NC(=O)CO/N=C(\C)c2cccs2)cc1
19% | CCCN(CC(=O)Nc1ccc(Cl)cc1Cl)C(=O)c1ccc(=O)[nH]c1
-5% | O=C(Cc1ccc(Cl)cc1)Nc1cccc(S(=O)(=O)Nc2ccccc2F)c1
-6% | CCCCNC(=O)COC(=O)CCC(=O)c1ccc(F)cc1
-2% | NC(=O)NCc1cccnc1
-14% | CCOC(=O)c1c(C)[nH]c(C(=O)COC(=O)C23CC4CC(CC(Cl)(C4)C2)C3)c1C
? | CCC(C)c1ccc(OCC(=O)Nc2ccc3[nH]c(=O)[nH]c3c2)cc1 (centres undefined)
-5% | O=C(CN1C(=O)C2(SCC(=O)N2c2ccc(F)cc2)c2ccccc21)NCCc1ccccc1 (centres undefined)
-1% | Cc1ccccc1OCCSc1nnc(-c2cccnc2)n1N

Following part
VDR inhibitor | SMILES
? | CCOC(=O)CS(=O)(=O)c1nc(-c2ccc(F)cc2)cc(C(F)(F)F)n1
11% | Cc1ccc(S(=O)(=O)N/N=C/c2ccc(O)c(O)c2)cc1[N+](=O)[O-]
-7% | O=S(=O)(c1cccs1)N1CCN(c2ccccn2)CC1
-11% | O=C(Cn1cc(C(F)(F)F)ccc1=O)NC1CCCC1
13% | O=C(CN1C(=O)CSC1=O)Nc1ccc(N2CCOCC2)cc1
35µM* | CCOC(=O)c1c(N)sn(-c2ccccc2C)c1=S
14% | COc1cc(/C=N/N(C)C2=NS(=O)(=O)c3ccccc32)cc(OC)c1OC
-4% | Cc1nc(CS(=O)(=O)c2ccccn2)sc1C(=O)NNC(=O)c1ccc(Cl)cc1
23% | O=C(c1ccc(F)cc1)N(NC(=O)C(O)(c1ccccc1)c1ccccc1)c1ccccc1
-8% | Cc1cc(NC(=O)Cc2ccccc2)no1
3% | CCOc1ccccc1-n1nnnc1SCC(=O)NC(=O)Cc1ccccc1
12% | Cc1ccc(Cl)cc1-n1ncc2c(NCCc3ccccc3)ncnc21
-19% | Cn1c(C(=O)OC(C(=O)NC2CCCCC2)c2ccccn2)cc2sccc21 (centres undefined)
0% | Cc1cc(N2CCOCC2)nc2ccc(NC(=O)CCC(=O)N3CCC(C)CC3)cc12
7% | CN(c1ccc(C(=O)NCC2CCCO2)cc1)S(C)(=O)=O (centres undefined)
-1% | Cc1cc(C(=O)Nc2ncn[nH]2)ccc1[N+](=O)[O-]
? | COC(=O)/C=C1/SC(=NC(=O)c2ccc(Cl)cc2)NC1=O
-20% | CN1CCN(c2ncc3nc(-c4cccs4)c(=O)n(Cc4ccc(F)cc4)c3n2)CC1
-19%&-2% | CCOc1nc(NC(=O)NS(=O)(=O)Oc2ccccc2Cl)nc(-c2ccccc2)n1
-17% | Nc1nc2c(nc(N3CCCCC3)n2[C@@H]2O[C@H](CO)[C@@H](O)[C@H]2O)c(=O)[nH]1

Next section
VDR inhibitor | SMILES
15% | O=[N+]([O-])c1ccc(CSC2=NCCS2)cc1
2% | Clc1cccc(N2CCN(c3nc4ccccc4c4nc(-c5cccnc5)nn34)CC2)c1
-2% | COC(=O)C(C(=O)N1CCN(C)CC1)C1CCCCCC1 (centres undefined)
-2% | COc1ccc(CN(C#N)c2nc(C)cc(C)n2)cc1
2% | Cn1c2c(c(=O)[nH]c1=O)C(c1cccc(O)c1)C1=C(N2)c2ccccc2C1=O (centres undefined)
? | CCn1ccnc1CN1CCc2c([nH]c3ccccc23)C1C1CCCCC1 (centres undefined)
-9% | Cc1ccc(C)c(N2CCN(C(=O)C3CCN(c4nnc(N5CCCC5=O)s4)CC3)CC2)c1
6% | COc1ccc(N2CCN(C(=O)c3ccc(C)cc3Cl)CC2)cc1
-4% | OCC1(Cc2cccc(Cl)c2)CCCN(Cc2ccc(F)c(F)c2)C1 (centres undefined)
-10% | Cc1cc(/C([O-])=C(/C(=S)Nc2ccccc2)[n+]2ccccc2)c(C)n1-c1ccccc1
-12% | Cc1nn(CC2CC2)c(=O)n1-c1ccc(Cl)cc1
? | O=C1C(=O)N(Cc2ccc(Cl)c(Cl)c2)c2ccccc21
19% | Nc1ccc(Oc2ccc3nc(-c4ccccc4)c(-c4ccccc4)nc3c2)cc1
11% | COc1ccc2c(COC(=O)CNS(=O)(=O)c3ccc(C)c(C)c3)cc(=O)oc2c1
-3% | O=C(C[C@H]1C/C=C\C[C@@H](Cc2ccc(F)cc2)C(=O)OC[C@H]2CCCN2C1=O)N[C@@H](CO)Cc1ccccc1
6% | COc1ccc(NC(=O)Cn2cccc2)cc1Cl
8% | O=[N+]([O-])c1ccccc1Oc1ccccc1Cl
-16% | CCc1ccc(CNC(=O)c2ccc(OC3CCN(C(=O)COC)CC3)cc2)nc1
18% | O=C(Nc1ccc2c(c1)OCO2)N1CCC(CO)(CC2CCCCO2)CC1 (centres undefined)
-8% | COc1ccc2nc(NN=C(C)c3ccccn3)cc(C)c2c1

The list goes on:
VDR inhibitor | SMILES
-13% | CC(C)Oc1cccc(-c2nnc(SCC(=O)Nc3ccc4c(c3)OCCO4)n2N)c1
-14% | Oc1ccc(/C=N/NC(=S)NCCN2CCOCC2)c(O)c1
5% | CCCc1cc(C(=O)NCCc2ccccc2)no1
3% | C/C(=N\O)c1ccc(Cl)cc1Cl
-12% | Cc1ccc(Nc2c([N+](=O)[O-])c(=O)oc3ccccc23)cc1C
-11% | COc1ccccc1C(=O)NCC(=O)OCC(=O)N(CC(C)C)c1c(N)n(Cc2ccccc2)c(=O)[nH]c1=O
-2% | O=C(NCCN1CCOCC1)c1ccccc1N1C(=O)[C@@H]2Cc3c([nH]c4ccccc34)C(c3ccccc3)N2C1=O (some centres undefined)
-1% | COc1ccccc1CNC(=O)c1cc(-c2ccccc2C)nn1CC1CC(c2cccnc2)=NO1 (centres undefined)
-10% | CCOc1ccc(NC(=O)c2c(NC(=O)c3ccco3)sc3c2CCC(C(C)(C)C)C3)cc1 (centres undefined)
1% | O=C(Nc1ccc(C(=O)N2CCCCC2)cc1)c1cccc([N+](=O)[O-])c1
-5% | CCN1CCN(c2ccc(S(=O)(=O)N3CCCCC3)cc2NC(=O)/C=C/c2ccc(Cl)cc2)CC1
-13% | COc1cc(C(=O)Nc2ccccc2OCc2cc(=O)n3c(C)csc3n2)cc(OC)c1OC
-14% | O=C(CCS(=O)(=O)c1ccccc1)N(CCCN1CCOCC1)c1nc2ccc(F)cc2s1
10% | CC(C)NS(=O)(=O)c1ccc(NC(=O)C(C)OC(=O)CCC2CCCC2)cc1 (centres undefined)
? | CN1CCN(S(=O)(=O)c2ccc(N3CCc4ccccc4C3)nc2)CC1
-2% | O=C(CCc1nc(-c2ccccc2)no1)Nc1cccc(C(=O)NC2CC2)c1
2% | FC(F)(F)c1cnc2c(-c3ccc(Cl)cc3Cl)noc2c1
-1% | O=C(Cc1ccc(Cl)cc1)NC(=S)Nc1ccccc1O
5% | Cc1c(OCC(=O)N2CCC(C(N)=O)CC2)ccc2c1oc(=O)c1ccccc12
? | CCNS(=O)(=O)c1ccc(NC(=S)NCC2CCCO2)cc1 (centres undefined)

Carrying on.
VDR inhibitor | SMILES
0% | CCOC(=O)C1=C(CC)OC(N)=C(C#N)C1c1ccc(OC)c(C)c1OC (centres undefined)
0% | COc1ccccc1NC(=O)CCSCCC(=O)Nc1ccccc1OC
-16% | CC(=O)N(C(C)=O)c1c(N2CCCC2)c2ccccc2oc1=O
-23% | CCC(=O)Nc1ccc(Cl)c(NC(=S)NC(=O)c2cc3ccccc3o2)c1
-8% | Cc1cc(Br)ccc1OCCN1CCCC1
17% | Cc1ccc(/C=C/S(=O)(=O)NCC(=O)OCC(=O)Nc2ccc(C(=O)N(C)C)cc2)cc1
19% | Cc1noc2ncnc(NCc3ccccc3Cl)c12
-5% | Cc1ccc(SCCNC(=S)Nc2cc(C)cc(C)c2)cc1
-1% | O=C(Nc1nnc(CSCc2ccc(F)cc2)s1)c1cccc([N+](=O)[O-])c1
11% | CC(=O)N1CCN(C(=O)c2cccc(S(=O)(=O)N3c4ccccc4CC3C)c2)CC1 (centres undefined)
8% | O=C(O)C(=O)Cc1c[nH]c2ccccc12
13% | [O-]/C(=C(\C(=S)Nc1ccc(SC(F)F)cc1)[n+]1cccc(CO)c1)c1ccc(Cl)s1
13% | Oc1ccc(-c2nnc(-c3ccc(O)cc3)nn2)cc1
3% | COc1ccc(-n2c(=O)c3c4c(sc3n(Cc3ccccc3)c2=O)CCC4)c(OC)c1
-4% | CCc1ccc(NC(=O)CCCc2nnc3n(C(C)CC)c(=O)c4sccc4n23)cc1 (centres undefined)
8% | C=CCOc1ccccc1CNc1ccc2[nH]c(=O)[nH]c2c1
-14% | O=C1N=C(N2CCOCC2)S/C1=C/c1ccc(-c2ccccc2Cl)o1
-13% | CC(C)(C)c1ccc(OCc2cnc(Cl)s2)cc1
18% | COc1ccc(/C=N/N=C2\SC(CC(=O)O)C(=O)N2c2ccccc2)c(OC)c1 (centres undefined)
-6% | COc1cccc(CNC(=O)c2ccc3c(c2)S(=O)(=O)N=C2CCCCCN23)c1

(further entries)
VDR inhibitor | SMILES
-7% | CC(NC(=O)COC(=O)C1CSC2(C)CCC(=O)N12)C12CC3CC(CC(C3)C1)C2 (centres undefined)
11% | Cc1cccc(-c2nc(C)c(CCNC(=O)C(=O)Nc3c(C)cc(C)cc3C)s2)c1
? | C/C(CC(=O)Nc1ccccn1)=N\NC(=O)C(=O)Nc1cccc(C)c1
25% | COc1ccc(C(=O)NNC(=O)CCc2ccccc2OC)cc1

17 compounds out of the list, ordered by molecular weight, rising:
VDR inhibitor | SMILES
8% | O=C(O)C(=O)Cc1c[nH]c2ccccc12
13% | Oc1ccc(-c2nnc(-c3ccc(O)cc3)nn2)cc1
-8% | Cc1cc(Br)ccc1OCCN1CCCC1
8% | C=CCOc1ccccc1CNc1ccc2[nH]c(=O)[nH]c2c1
25% | COc1ccc(C(=O)NNC(=O)CCc2ccccc2OC)cc1
-5% | Cc1ccc(SCCNC(=S)Nc2cc(C)cc(C)c2)cc1
? | C/C(CC(=O)Nc1ccccn1)=N\NC(=O)C(=O)Nc1cccc(C)c1
-14% | O=C1N=C(N2CCOCC2)S/C1=C/c1ccc(-c2ccccc2Cl)o1
-1% | O=C(Nc1nnc(CSCc2ccc(F)cc2)s1)c1cccc([N+](=O)[O-])c1
18% | COc1ccc(/C=N/N=C2\SC(CC(=O)O)C(=O)N2c2ccccc2)c(OC)c1 (centres undefined)
-7% | CC(NC(=O)COC(=O)C1CSC2(C)CCC(=O)N12)C12CC3CC(CC(C3)C1)C2 (centres undefined)
11% | Cc1cccc(-c2nc(C)c(CCNC(=O)C(=O)Nc3c(C)cc(C)cc3C)s2)c1
11% | CC(=O)N1CCN(C(=O)c2cccc(S(=O)(=O)N3c4ccccc4CC3C)c2)CC1 (centres undefined)
3% | COc1ccc(-n2c(=O)c3c4c(sc3n(Cc3ccccc3)c2=O)CCC4)c(OC)c1
-4% | CCc1ccc(NC(=O)CCCc2nnc3n(C(C)CC)c(=O)c4sccc4n23)cc1 (centres undefined)
17% | Cc1ccc(/C=C/S(=O)(=O)NCC(=O)OCC(=O)Nc2ccc(C(=O)N(C)C)cc2)cc1
13% | [O-]/C(=C(\C(=S)Nc1ccc(SC(F)F)cc1)[n+]1cccc(CO)c1)c1ccc(Cl)s1
